Mtb H37Rv – Mycobacterium tuberculosis H37Rv growth inhibition, cell based, confirmatory dose response (AID 1949). most inactive calls were filed without a number and no value below 0 was filed. one-dose inhibition, % at 10 µg/mL; IC50 in µg/mL for titrated hits. 1.6% of 100,000 active;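 active = confirmed in a dose series; inconclusive = about 50% or more but not retested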;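 also: bacteria grown 7 days with compound before Alamar blue readout; 0% = untreated bacteria and 100% = reference antibiotic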
Active calls of the source: *; i = inactive; u = inconclusive. This is a subset; rates above refer to the full screens.

SMILES	Mtb H37Rv
COc1ccc(Br)cc1C(=O)NC(=S)Nc1cc(Cl)c(O)c(Cl)c1	i
CC(C)c1ccc(N(CC(=O)N2CCC(C(N)=O)CC2)S(=O)(=O)c2ccccc2)cc1	i
O=C(c1ccc(NC(=S)NCc2ccc(Cl)cc2)cc1)N1CCCC1	i
Cc1c(Br)c(C(F)(F)F)nn1CC(=O)N1CCCCC1C (centres undefined)	i
OC(c1ccccc1)(c1ccccc1)C1CCN(C(=S)NCCc2ccccc2)CC1	1%
CCC(Oc1ccccc1)C(=O)O/N=C(\N)c1ccc(OC)cc1 (centres undefined)	6%
CN1CCN(C(=O)c2cc(Cl)cc(Cl)c2NC(=O)c2ccco2)CC1	i
CCOc1ccc(Cl)cc1CNCCc1ccccc1F	i
CCC(C)NS(=O)(=O)c1ccc(NC(=O)c2cccc(NC(=O)c3ccccc3)c2)cc1 (centres undefined)	i
COc1cc(OC)cc(C(=O)N2CCN(C3CCCC(C)C3)CC2)c1 (centres undefined)	i
CCOC(=O)Cc1csc(NC(=O)c2ccco2)n1	16%
COC(=O)c1ccc(NC(=O)CSc2nc(-c3ccccc3)cs2)cc1	i
CS(=O)(=O)N(CC(=O)Nc1ccccc1Cl)c1cccc(F)c1	i
COc1ccc(NC(=O)c2ccco2)cc1NC(=O)c1ccc(-c2ccccc2[N+](=O)[O-])o1	i
O=C(c1cccs1)C1C(c2ccc3c(c2)OCO3)NC(=S)NC1(O)C(F)(F)F (centres undefined)	i
CC1(C)Cc2c(sc3nc(=S)[nH]c(N)c23)CS1	i
O=C(Nc1cccc2ccccc12)c1cc(Cl)ccc1Cl	i
CCOc1ccccc1NC(=O)C1CC1c1ccccc1 (centres undefined)	0%
CC(NC(=O)CCC(=O)Nc1ccccc1O)c1ccccc1 (centres undefined)	i
CC(=O)Oc1cc(OC(C)=O)c2c(C)c(C)c(=O)oc2c1	i
COc1ccccc1-c1nc(S(=O)(=O)c2ccccc2)c(NCc2ccccc2)o1	i
O=C(Cc1ccccc1)N1CCC(N2CCN(c3ccccc3)CC2)CC1	i
COc1ccc(CNC(=O)C(C)Sc2ccccc2)cc1 (centres undefined)	i
Cc1ccc2nc(-c3ccccc3)nc(-c3ccc(N)cc3)c2c1	0%
Cc1cccc(NS(=O)(=O)c2cc(C(N)=O)ccc2Cl)c1C	i
Cc1cc(S(=O)(=O)N2CCN(c3ccc(F)cc3)CC2)ccc1F	i
CCC(C)Oc1ccc(C(=O)NC(=S)Nc2cccc(C(=O)O)c2)cc1 (centres undefined)	14%
COc1ccc(NC(=O)CSc2nnc(C(C)NC(=O)c3ccccc3Br)n2C)cc1 (centres undefined)	i
COc1ccccc1NC(=O)Cn1nnc2sc3c(c2c1=O)CCC(C)C3 (centres undefined)	i
O=C(CSc1ccccc1)Nc1ccc([N+](=O)[O-])cc1O	i
Cn1ncc(C#N)c1/N=C/N1CCCC1	1%
Cc1cc(OCCNCCN)ccc1C(C)C	i
CCC(=O)Nc1ccc(Br)cc1C(=O)O	i
O=C(NC(Nc1cccc(C(F)(F)F)c1)C(=O)c1ccccc1)c1ccc(Cl)cc1 (centres undefined)	i
O=C1CN(c2ccccc2)C(=O)C1C(=O)NCc1ccco1 (centres undefined)	2%
COc1cc(C(=O)n2cnc3ccccc32)c([N+](=O)[O-])cc1OC	i
Cc1ccc(NC(=O)C(c2ccccc2)c2ccccc2)cc1Cl	i
COc1cccc(NC(=S)Nc2ccccc2-c2ccccc2)c1	i
CC(C)Cc1c(O)nc(SCCN(C)C)[nH]c1=O	i
CS(=O)(=O)N(CC(=O)Nc1ccccc1C(F)(F)F)c1ccc2c(c1)OCCO2	i
CC1CCN(CC(=O)Nc2cc(C(F)(F)F)ccc2Cl)CC1	0%
COc1ccc(NC(=O)CN(c2ccc(I)cc2)S(=O)(=O)c2ccccc2)c(OC)c1	i
CCOc1ccccc1N1CCN(C(=S)NCc2ccc(Cl)cc2)CC1	3%
COc1cc2c(cc1OC)C(c1ccccc1)N(C(=O)c1ccc(C)cc1)CC2 (centres undefined)	3%
O=C(CSc1nc2ccccc2c(=O)[nH]1)Nc1ccc(Br)cc1F	i
COc1ccc(OC)c(NC(=S)Nc2cccc(C)c2)c1	i
CCOc1ccccc1C(=S)N1CCN(c2ccccc2F)CC1	i
Cc1cc(C)cc(CC(CC(=O)O)C(=O)Nc2ccccc2C(F)(F)F)c1 (centres undefined)	i
Fc1ccccc1-c1n[nH]c(=S)n1CC1CCCO1 (centres undefined)	i
Cc1c(C(=O)Nc2ccccc2)sc2ncn(Cc3cccc(Br)c3)c(=O)c12	i
Following part:
SMILES	Mtb H37Rv
O=Cc1c(-c2cccs2)nc2c3ccccc3ccn12	i
COc1ccc(CCNC(=O)COc2ccc(Br)cc2C)cc1OC	6%
CCc1ccc(N(CC(=O)Nc2ccccc2C(F)(F)F)S(C)(=O)=O)cc1	i
COC(=O)c1ccc(Nc2nc(-c3ccc(OC)cc3)c(C)s2)cc1	48%
CC(NC(=O)Nc1ccc(F)cc1F)c1ccncc1 (centres undefined)	i
Cc1ccc(Cl)cc1N1CCN(CC(=O)Nc2ccc(F)cc2)CC1	16%
CC(NS(=O)(=O)c1ccc(OCC(=O)NC2CCCCCC2)cc1)c1ccccc1 (centres undefined)	6%
COc1cc(OC)c(NC(=O)COc2ccc(C(C)C)cc2Br)cc1Cl	i
COc1cccc(C(=O)N2CCN(C(=O)c3ccccc3OC)CC2)c1	i
O=C(/C=C/c1ccc(Cl)cc1)Nc1ncc(Cc2cccc(Cl)c2Cl)s1	i
O=C(Nc1ccc(N2CCOCC2)cc1)c1cccs1	i
C=CCn1c(SCC(=O)Nc2ccc(Br)cc2F)nnc1-c1ccccc1Cl	2%
CS(=O)(=O)N(CC(=O)N1CCN(Cc2ccccc2)CC1)C1CCCCC1	i
O=C(CSC1CCCCC1)NCc1ccccc1	i
Cc1cc(OCc2nc(-c3cccnc3)no2)ccc1Br	4%
COc1ccc(S(=O)(=O)NCc2cccc(CNS(=O)(=O)c3ccc(OC)cc3)c2)cc1	i
CCOc1ccc(-c2nc3cc(NC(=S)NC(=O)c4cc5ccccc5o4)ccc3o2)cc1	i
CN(C)c1ccc(C(=S)N2CCN(C(c3ccccc3)c3ccccc3)CC2)cc1	i
COC(=O)C(C)NC(=O)C12CC3(C)CC(C)(CC(C)(C3)C1)C2 (centres undefined)	2%
CC(C)(C)c1ccc(OCC(=O)Nc2ccc(S(=O)(=O)N3CCCC3)cc2)cc1	i

Arranged by SMILES length (high to low): 16 of the compounds above.
SMILES	Mtb H37Rv
COc1ccc(S(=O)(=O)NCc2cccc(CNS(=O)(=O)c3ccc(OC)cc3)c2)cc1	i
CCOc1ccc(-c2nc3cc(NC(=S)NC(=O)c4cc5ccccc5o4)ccc3o2)cc1	i
CC(C)(C)c1ccc(OCC(=O)Nc2ccc(S(=O)(=O)N3CCCC3)cc2)cc1	i
Cc1c(C(=O)Nc2ccccc2)sc2ncn(Cc3cccc(Br)c3)c(=O)c12	i
CCc1ccc(N(CC(=O)Nc2ccccc2C(F)(F)F)S(C)(=O)=O)cc1	i
Cc1cc(C)cc(CC(CC(=O)O)C(=O)Nc2ccccc2C(F)(F)F)c1 (centres undefined)	i
COC(=O)C(C)NC(=O)C12CC3(C)CC(C)(CC(C)(C3)C1)C2 (centres undefined)	2%
C=CCn1c(SCC(=O)Nc2ccc(Br)cc2F)nnc1-c1ccccc1Cl	2%
COc1cc(OC)c(NC(=O)COc2ccc(C(C)C)cc2Br)cc1Cl	i
COc1cccc(C(=O)N2CCN(C(=O)c3ccccc3OC)CC2)c1	i
Cc1ccc(Cl)cc1N1CCN(CC(=O)Nc2ccc(F)cc2)CC1	16%
COc1ccc(CCNC(=O)COc2ccc(Br)cc2C)cc1OC	6%
Cc1cc(OCc2nc(-c3cccnc3)no2)ccc1Br	4%
O=Cc1c(-c2cccs2)nc2c3ccccc3ccn12	i
CC(NC(=O)Nc1ccc(F)cc1F)c1ccncc1 (centres undefined)	i
O=C(CSC1CCCCC1)NCc1ccccc1	i

Continuation.
SMILES	Mtb H37Rv
COc1cc(OC)cc(C(=O)Nc2ccc(-c3nc4ccccc4s3)c(Cl)c2)c1	1%
COc1ccc(C(=O)CC2(O)C(=O)Nc3ccc(Cl)cc32)cc1OC (centres undefined)	7%
Cc1nn(S(=O)(=O)c2cccs2)c(C)c1Sc1ccc([N+](=O)[O-])cc1	i
S=C(NCCCn1ccnc1)Nc1ccc(Cl)cc1Cl	i
COC(=O)c1c(NC(=O)c2ccc(C)c(C)c2)sc2c1C(C(=O)OC)CC2 (centres undefined)	1%
CC(C)Oc1ccc(Nc2ncnc3ccc(Br)cc23)cc1	2.5µg/mL*
CS(=O)(=O)N1CCN(C(=O)c2ccccc2Br)CC1	i
Cc1ccc(C(=NCc2ccc([N+](=O)[O-])cc2)NC(=S)N2CCOCC2)cc1	5%
COc1ccc(NC(=O)Nc2ccc(F)cc2F)c([N+](=O)[O-])c1	i
Nc1nc(=Nc2ccccc2)n2c(n1)sc1ccccc12	3%
Cc1c(F)cccc1NC(=S)Nc1cccc2ccccc12	i
CC(c1ccccc1)n1c(-c2ccccc2F)n[nH]c1=S (centres undefined)	i
CC(C)NS(=O)(=O)c1ccc(OCC(=O)N2CCCC2)cc1	i
CCOc1c(S(=O)(=O)N(CC)CC)ccc(Cl)c1Cl	1%
O=C(CC12CC3CC(CC(C3)C1)C2)Nc1ccccc1N1CCN(C(=O)c2ccccc2)CC1	16%
O=C(Oc1ccc2c(c1)OCC2=O)c1ccccc1	i
CC1=C(C(=O)OCc2ccccc2)C(c2cccc([N+](=O)[O-])c2)n2ncnc2N1 (centres undefined)	4%
O=c1[nH]nc(-c2ccc(NCC3CCCO3)c([N+](=O)[O-])c2)c2ccccc12 (centres undefined)	6%
O=C(NC(=S)Nc1ccc(S(=O)(=O)Nc2ccccc2)cc1)c1cccs1	i
C=CCNC(=O)c1ccc(OCCCC)cc1	i
CC(=O)Nc1ccccc1NC(=O)c1ccc(C)cc1C	i
O=c1[nH]c(N2CCOCC2)nc2ccccc12	i
Cc1cc(NC(=O)Cc2nn(C)c(=O)c3ccccc23)no1	1%
Cc1ccc(C(=O)Oc2ccc3c(C)cc(=O)oc3c2)cc1[N+](=O)[O-]	i
CCCN(CC1CC1)C(=S)Nc1ccccc1C(C)C	i
Cc1nnc(-c2cccc([N+](=O)[O-])c2)s1	i
Cc1cc(C)n(Cc2cc(-c3nn(C)c(=O)c4ccccc34)ccc2C)n1	i
Cc1ccc(-c2nn(-c3cc(N4CCN(C(=O)c5ccccc5)CC4)ccc3[N+](=O)[O-])c(=O)c3ccccc23)cc1	i
CCn1c(SCC(=O)NC(C)c2ccccc2)nnc1C(C)NC(=O)c1ccccc1 (centres undefined)	i
COC(=O)C1C(=O)Oc2ccc(Br)cc2C1C(C)(C)C(=O)OC (centres undefined)	i

3 of the compounds above, as comma-separated lines:
Molecule,Mtb H37Rv
Cc1ccc(C(=O)Oc2ccc3c(C)cc(=O)oc3c2)cc1[N+](=O)[O-],i
CCCN(CC1CC1)C(=S)Nc1ccccc1C(C)C,i
Cc1nnc(-c2cccc([N+](=O)[O-])c2)s1,i

Remaining list, next part:
SMILES	Mtb H37Rv
CCc1ccccc1N(CC(=O)Nc1ccccc1C(=O)N1CCCC1)S(=O)(=O)c1ccccc1	i
Cc1cc(NC(=O)CSc2ccccn2)no1	i
COC(=O)c1ccc(C2C(Oc3ccc(OC)cc3)C(=O)N2CCc2ccc(F)cc2)cc1 (centres undefined)	i
COc1ccc([N+](=O)[O-])cc1NC(=O)Nc1cccc(Cl)c1Cl	i
Cc1cc(Br)c(NC(=S)NC(=O)Cc2ccccc2)cc1C	i
Cc1c(C=O)c2ccccc2n1Cc1ccccc1	i
O=[N+]([O-])c1c[n+]([O-])n(-c2cccc(Cl)c2)n1	i
COc1ccc(Cl)cc1C(=O)Nc1ccc(F)c(F)c1	i
CC12CCC(C(=O)Nc3ccc(Cl)c(Cl)c3)(OC1=O)C2(C)C (centres undefined)	8%
COc1ccc(C/C(N)=N/OC(=O)COc2ccccc2C)cc1	i
CCCCNC(=S)NCc1ccccc1	i
CCCCC(=O)Nc1cccc(NC(=O)COc2ccc(Cl)cc2)c1	i
Cc1cc(OCC(=O)N2CCN(c3ccccc3F)CC2)cc(C)c1Br	i
CCC1(C)Cc2ccccc2-c2nc(NCCO)n(-c3ccc(C)cc3)c(=O)c21 (centres undefined)	8%
CN(CC(=O)N1CCCc2ccccc21)S(=O)(=O)c1cc(Cl)ccc1Cl	6%
C=CCn1c(SCC(=O)c2cc(OC)ccc2OC)nnc1-c1ccccn1	3%
COC(=O)c1ccc(C)c(NC(=O)c2ccc(N(C)S(C)(=O)=O)cc2)c1	i
CCOC(=O)c1ccccc1NC(=O)c1ccccc1N(C)S(C)(=O)=O	i
COc1ccc(CNC(=O)c2cc3c(C)nn(-c4ccccc4)c3s2)cc1	u
Cc1cnn(C(=O)Nc2ccc3c(c2)OCO3)c1	i
CCOc1ccc(-c2csc(NC(=O)C3CCCCC3)n2)cc1	i
CCOC(=O)N1CCN(c2ncnc3c2cnn3-c2ccc(Cl)cc2)CC1	i
Cc1ccc(OCC(=O)Nc2ccc3oc(-c4ccc(F)cc4)nc3c2)c(C)c1	i
CC1CN(C(=S)c2cccc(Oc3ccccc3)c2)CC(C)O1 (centres undefined)	i
COc1ccc(S(=O)(=O)N(CC(=O)NC2CCCC2)c2ccc(F)cc2)cc1OC	i
CN(CC(=O)Nc1ccc(OCc2ccccc2)cc1)S(=O)(=O)c1cc(Cl)ccc1Cl	i
CNc1nc(OCCNC(=O)Nc2ccccc2)nc(N2CCOCC2)n1	i
Cc1ccc(Oc2coc3cc(OC(=O)c4cc5ccccc5oc4=O)ccc3c2=O)cc1	i
CCOc1cc(C)c(Cl)cc1S(=O)(=O)N1CCCC1	4%
Cc1nc(SCC(=O)Nc2ccc(Cl)cc2)c2c3c(sc2n1)CCCC3	i
COc1ccc(CCNC(=O)CN(c2cc(C)ccc2OC)S(C)(=O)=O)cc1	i
O=C(COc1ccc(F)cc1F)NNC(=S)NCCc1ccccc1	i
CCS(=O)(=O)N1CCN(c2ccc([N+](=O)[O-])c(NCC3CCCO3)c2)CC1 (centres undefined)	i
CCOC(=O)c1cnc(SCC(=O)N2CCC(C(N)=O)CC2)nc1N	i
COc1ccc(-c2csc3[nH]c(=S)[nH]c(=O)c23)cc1	2%
